Screening data deposited in PubChem by Broad Institute.
Vaccinia stage: blocks a specific stage of Vaccinia orthopoxvirus infection, primary screen, cell-based, single point; Vaccinia-infected cells, mCherry/Venus stage reporter fluorescence; hits give low values; some inactives read as strong as hits; activity change (mCherry), % (concentration not given with the values); 0.01% of 89,000 active; AID 1053133, 2014;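 active = mCherry past -33% and 40 or more points under the early reporter, replicates agreeing; inconclusive = past -33% without that gap or agreement; tested in A549 cells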;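 also: scaled between vehicle wells and reference inhibitor wells; 23 nL library stock went into each well; one replicate is shown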
Vaccinia stage Venus: second read-out of Vaccinia stage, no call of its own (marks repeat the call); activity change (Venus), %; measured here: Venus reporter, other viral stage;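 negative = less Venus signal; first of two replicates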
An asterisk follows results filed as active; ? = inconclusive; . = not tested or not shown. This is a subset. The share of hits here may be higher or lower than overall.

SMILES | Vaccinia stage | Vaccinia stage Venus
COc1ccc(NC(=O)N(C)C[C@@H]2Oc3c(NS(=O)(=O)c4ccc(OC)cc4)cccc3C(=O)N([C@H](C)CO)C[C@@H]2C)cc1 | 0 | 9
O=C(C[C@@H]1CC[C@H](NS(=O)(=O)c2ccccc2)[C@@H](CO)O1)NCc1ccc(Cl)c(Cl)c1 | -9 | -2
C[C@@H]1CN([C@@H](C)CO)C(=O)CCCn2cc(nn2)CO[C@@H]1CN(C)Cc1cccc(C(F)(F)F)c1 | 2 | 6
C[C@H](CO)N1C[C@H](C)[C@@H](CN(C)C(=O)Nc2cccc3ccccc23)Oc2ccc(NC(=O)Cn3cnnn3)cc2CC1=O | 32 | 25
CNC[C@H]1Oc2ccc(NS(=O)(=O)c3ccc(Cl)cc3)cc2CC(=O)N([C@@H](C)CO)C[C@@H]1C | 8 | 4
C[C@@H]1CN([C@H](C)CO)C(=O)Cc2cc(NS(=O)(=O)c3cn(C)cn3)ccc2O[C@H]1CN(C)S(C)(=O)=O | 3 | -2
CCNC(=O)[C@@H]1[C@@H](CO)[C@@H]2Cn3c(ccc(-c4ccccc4)c3=O)[C@H]1N2Cc1ccccc1 | 7 | 2
CCCN1[C@@H]2c3cccc(=O)n3C[C@@H]2[C@@H](CO)[C@@H]1C(=O)N[C@H](C)c1ccccc1 | 12 | 12
COCC(=O)N(C)C[C@@H]1Oc2ncc(C#Cc3ccccc3)cc2C(=O)N([C@@H](C)CO)C[C@H]1C | 29 | 17
C[C@H]1CN([C@@H](C)CO)C(=O)CCCn2nncc2CO[C@@H]1CN(C)S(=O)(=O)c1ccccc1 | 14 | 0
COc1ccc(NC(=O)Nc2cccc3c2O[C@@H](CN(C)Cc2ccc(C(F)(F)F)cc2)[C@@H](C)CN([C@H](C)CO)C3=O)cc1 | -12 | -1
CC(C)CC#Cc1cnc2c(c1)C(=O)N([C@H](C)CO)C[C@@H](C)[C@H](CN(C)C(=O)Nc1cc(F)ccc1F)O2 | -12 | -13
CO[C@@H]1CN(C)C(=O)c2cc(NS(=O)(=O)c3ccccc3)ccc2OC[C@@H](C)N(C)C[C@H]1C | 7 | 9
COc1cccc(NC(=O)N(C)C[C@H]2OCc3cn(nn3)CCCC(=O)N([C@@H](C)CO)C[C@H]2C)c1 | 9 | 11
C[C@@H]1CN([C@@H](C)CO)C(=O)c2cc(NS(C)(=O)=O)ccc2O[C@@H]1CN(C)Cc1ccc(Oc2ccccc2)cc1 | -30 | -30
COc1ccc2c3c(n(C)c2c1)[C@H](CO)N(Cc1cccc(Cl)c1)CC31CN(C(C)=O)C1 | 1 | 0
C[C@H](CO)N1C[C@H](C)[C@H](CN(C)C(=O)Nc2cccc3ccccc23)Oc2ccc(NC(=O)CCC(F)(F)F)cc2CC1=O | 17 | 14
CO[C@@H]1CN(C)C(=O)c2cc(NC(C)=O)ccc2OC[C@@H](C)N(Cc2ccccn2)C[C@H]1C | -5 | -11
COc1ccccc1NC(=O)N[C@@H]1C=C[C@H](CC(=O)N[C@@H](C)c2ccccc2)O[C@@H]1CO | 10 | 15
COc1cccc(-c2ccc3n(c2=O)C[C@@H]2[C@@H](CO)[C@H](C(=O)N(C)C)N(C(=O)C4CC4)[C@H]32)c1 | -5 | 0
Cc1ccc(S(=O)(=O)Nc2cccc3c2O[C@@H](CN(C)C(=O)Nc2ccccc2)[C@H](C)CN([C@@H](C)CO)C3=O)cc1 | -3 | -8
Cc1noc(C)c1NC(=O)Nc1ccc2c(c1)C(=O)N([C@H](C)CO)C[C@H](C)[C@@H](CN(C)C(=O)Nc1ccc(F)cc1)O2 | 12 | 10
C[C@@H]1CN([C@@H](C)CO)C(=O)Cc2cc(NC(=O)NC3CCCCC3)ccc2O[C@H]1CN(C)C(=O)Nc1ccccc1 | 17 | 8
O=C(NC1CCCCC1)N[C@@H]1CC[C@@H](CCNS(=O)(=O)c2ccccc2)O[C@H]1CO | -11 | -7
O=C(C[C@H]1CC[C@@H]2[C@H](COC[C@H](O)CN2Cc2ccccc2F)O1)NC1CCC1 | -5 | 4

Rewritten with two lines to a compound: entries from further up.
Screens in order: Vaccinia stage	Vaccinia stage Venus
COc1ccc(NC(=O)N(C)C[C@@H]2Oc3c(NS(=O)(=O)c4ccc(OC)cc4)cccc3C(=O)N([C@H](C)CO)C[C@@H]2C)cc1
  0	9
O=C(C[C@@H]1CC[C@H](NS(=O)(=O)c2ccccc2)[C@@H](CO)O1)NCc1ccc(Cl)c(Cl)c1
  -9	-2
C[C@@H]1CN([C@@H](C)CO)C(=O)CCCn2cc(nn2)CO[C@@H]1CN(C)Cc1cccc(C(F)(F)F)c1
  2	6
C[C@H](CO)N1C[C@H](C)[C@@H](CN(C)C(=O)Nc2cccc3ccccc23)Oc2ccc(NC(=O)Cn3cnnn3)cc2CC1=O
  32	25
CNC[C@H]1Oc2ccc(NS(=O)(=O)c3ccc(Cl)cc3)cc2CC(=O)N([C@@H](C)CO)C[C@@H]1C
  8	4
C[C@@H]1CN([C@H](C)CO)C(=O)Cc2cc(NS(=O)(=O)c3cn(C)cn3)ccc2O[C@H]1CN(C)S(C)(=O)=O
  3	-2

Later entries
SMILES | Vaccinia stage | Vaccinia stage Venus
C[C@H]1CN([C@@H](C)CO)C(=O)c2cc(NC(=O)Nc3cccc4ccccc34)ccc2O[C@@H]1CN(C)S(=O)(=O)c1ccc(F)cc1 | 27 | 6
COCC(=O)Nc1ccc2c(c1)C(=O)N(C)C[C@H](OC)[C@H](C)CN(Cc1ccccc1)[C@H](C)CO2 | -6 | 5
COc1ccc(CN2C[C@@H](C)[C@@H](OC)CN(C)C(=O)c3cc(NC(=O)c4nc5ccccc5s4)ccc3OC[C@H]2C)cc1 | 4 | -1
C[C@H]1CN([C@@H](C)CO)C(=O)c2cccc(NS(=O)(=O)c3cn(C)cn3)c2O[C@H]1CN(C)C(=O)Nc1ccc2c(c1)OCO2 | -3 | -10
CC(C)NC(=O)N(C)C[C@H]1Oc2c(NC(=O)C3CCOCC3)cccc2C(=O)N([C@H](C)CO)C[C@@H]1C | 13 | 18
C[C@H](CO)N1C[C@H](C)[C@H](CN(C)S(=O)(=O)c2ccc(F)cc2)OCCCC[C@H](C)Oc2ccc(NS(=O)(=O)c3ccc(Cl)cc3)cc2C1=O | ? | .
C[C@@H]1CCCCO[C@H](CN(C)C)[C@@H](C)CN([C@H](C)CO)C(=O)c2cc(NC(=O)Nc3ccc(C(F)(F)F)cc3)ccc2O1 | -10 | 9
CC(C)CC#Cc1ccc([C@H]2[C@@H](CO)N3C(=O)CN(C(=O)Nc4cc(F)ccc4F)C[C@@H]23)cc1 | -21 | -20
COc1ccc(CN(C)C[C@@H]2OCCCC[C@@H](C)Oc3ccc(NC(=O)Nc4cccc5ccccc45)cc3C(=O)N([C@@H](C)CO)C[C@H]2C)cc1 | -11 | -3
C[C@H](CO)N1C[C@H](C)[C@@H](CN(C)C(=O)NC2CCCCC2)Oc2c(NC(=O)Nc3ccccc3)cccc2C1=O | -18 | -8
C[C@@H]1CN([C@@H](C)CO)C(=O)c2cc(NC(=O)CCCN(C)C)ccc2O[C@@H](C)CCCCO[C@H]1CN(C)S(=O)(=O)c1ccccc1 | 10 | -2
COc1cccc(S(=O)(=O)N(C)C[C@H]2Oc3ncc(-c4cccc(C(=O)N(C)C)c4)cc3C(=O)N([C@@H](C)CO)C[C@H]2C)c1 | 17 | 3
O=C(Cc1cccnc1)N1CC(=O)N2[C@@H](CO)[C@H](c3ccc(C#CC4CC4)cc3)[C@@H]2C1 | 3 | 3
C[C@H](NC(=O)C[C@@H]1CC[C@H]2[C@@H](COC[C@@H](O)CN2Cc2ccc(C(F)(F)F)cc2)O1)c1ccccc1 | -31 | -17
C[C@@H]1CN([C@@H](C)CO)C(=O)c2cc(NC(=O)CCCCCC(=O)Nc3ccccc3N)ccc2O[C@H]1CN(C)Cc1ccc2c(c1)OCO2 | 29 | 10
COc1cccc(-c2cnc3c(c2)C(=O)N([C@H](C)CO)C[C@H](C)[C@H](CN(C)Cc2cccc(C)c2)O3)c1 | ? | .
COc1ccc(S(=O)(=O)Nc2ccc3c(c2)C(=O)N([C@@H](C)CO)C[C@H](C)[C@@H](CN(C)C(=O)Cc2ccccc2)OCCCC[C@@H](C)O3)cc1 | -12 | -22
O=C(NC1CCCCC1)N[C@@H]1C=C[C@H](CC(=O)N2CCOCC2)O[C@H]1CO | -6 | -7
CC(C)NC(=O)N(C)C[C@H]1Oc2ncc(C#CC3(O)CCCC3)cc2C(=O)N([C@H](C)CO)C[C@@H]1C | 20 | 13
CN(C)c1ccc2c(c1)[C@@H]1C[C@H](CC(=O)NCC3CC3)O[C@@H](CO)[C@@H]1O2 | 8 | 18
Cc1ccc(-c2ccc3c(c2)O[C@H](CN(C)Cc2ccc(C(=O)O)cc2)[C@@H](C)CN([C@H](C)CO)S3(=O)=O)cc1 | -21 | -23
COc1ccc2c3c(n(C)c2c1)[C@@H](CO)N(C(C)=O)CC31CCN(C(=O)C2CCOCC2)CC1 | 0 | -2
O=C(Nc1ccccc1F)N[C@H]1CC[C@@H](CCNS(=O)(=O)c2ccc(F)cc2)O[C@@H]1CO | -17 | -13
O=C(C1CC1)N1CC(=O)N2[C@H](CO)[C@H](c3ccc(C#CCc4ccccc4)cc3)[C@H]2C1 | -14 | -10
CO[C@@H]1CN(C)C(=O)c2cc(NC(=O)C3CCC3)ccc2OC[C@@H](C)NC[C@@H]1C | 10 | 9

Compounds shown so far containing two or more sulfur atoms, in the order listed:
SMILES | Vaccinia stage | Vaccinia stage Venus
C[C@@H]1CN([C@H](C)CO)C(=O)Cc2cc(NS(=O)(=O)c3cn(C)cn3)ccc2O[C@H]1CN(C)S(C)(=O)=O | 3 | -2
C[C@H](CO)N1C[C@H](C)[C@H](CN(C)S(=O)(=O)c2ccc(F)cc2)OCCCC[C@H](C)Oc2ccc(NS(=O)(=O)c3ccc(Cl)cc3)cc2C1=O | ? | .

Additional structures follow:
SMILES | Vaccinia stage | Vaccinia stage Venus
COCC(=O)N1C[C@H]2[C@@H](c3ccccc31)[C@@H](CO)N2C(=O)C1CCOCC1 | 0 | 11
COc1ccc([Si](C)(C)[C@@H]2[C@@H](CCn3cc([C@H](O)c4ccccc4)nn3)O[C@]3(C(=O)N(Cc4cccc(N5CCOC5=O)c4)c4ccccc43)[C@H]2C)cc1 | -34 | -18
CCCNC(=O)[C@@H]1[C@@H](CO)[C@@H]2Cn3c(ccc(-c4cccc(OC)c4)c3=O)[C@@H]2N1Cc1nccs1 | 18 | 12
O=C(C1=C[C@H](C2CC2)C[C@H](OCCCCO)O1)N1CCN(Cc2ccc3c(c2)OCO3)CC1 | 11 | -7
O=C(C[C@@H]1CC[C@@H]2[C@H](COC[C@H](O)CN2C(=O)Nc2cc(Cl)cc(Cl)c2)O1)NCC1CC1 | -25 | -15
CO[C@@H]1CN(C)C(=O)c2ccc(NC(=O)C3CC3)cc2OC[C@H](C)N(CCC(F)(F)F)C[C@@H]1C | 5 | 3
CN1c2ccc(-c3cccc(F)c3)cc2[C@H]2[C@H](CCN2C(=O)C2CCC2)[C@@H]1CO | -17 | -14
C[C@@H]1CN([C@@H](C)CO)C(=O)c2cccc(NC(=O)Nc3ccc4c(c3)OCO4)c2O[C@H]1CN(C)Cc1ccc(C(=O)O)cc1 | 0 | 15
CN1C[C@H](O)COC[C@H]2O[C@@H](CC(=O)N3CCN(c4ccccc4)CC3)CC[C@@H]21 | 15 | 8
Cc1noc(C)c1NC(=O)Nc1cccc2c1O[C@H](CN(C)Cc1ccc(Oc3ccccc3)cc1)[C@@H](C)CN([C@H](C)CO)C2=O | 6 | 2
CC(C)NC(=O)Nc1ccc2c(c1)CC(=O)N([C@@H](C)CO)C[C@H](C)[C@@H](CN(C)S(C)(=O)=O)O2 | 14 | 10
Cc1ccc(S(=O)(=O)Nc2cccc3c2O[C@@H](CN(C)C(=O)NC(C)C)[C@H](C)CN([C@@H](C)CO)C3=O)cc1 | 5 | 3
CO[C@@H]1CN(C)C(=O)c2ccc(NC(=O)c3cc(C)on3)cc2OC[C@@H](C)N(C(=O)C2CC2)C[C@@H]1C | 3 | 0
CC(C)NC(=O)Nc1ccc2c(c1)CC(=O)N([C@@H](C)CO)C[C@@H](C)[C@@H](CN(C)Cc1ccc(-c3ccccc3)cc1)O2 | ? | .
O=C([C@H]1[C@H](CO)[C@H]2Cn3c(cccc3=O)[C@@H]1N2CC1CCCC1)N1CCc2ccccc2C1 | 15 | 14
Cc1ccc(S(=O)(=O)N[C@H]2CC[C@H](CC(=O)NCCc3ccncc3)O[C@H]2CO)cc1 | 7 | 10
C[C@@H]1CCCCO[C@@H](CN(C)S(C)(=O)=O)[C@@H](C)CN([C@H](C)CO)C(=O)c2cc(NC(=O)Nc3ccccc3)ccc2O1 | 19 | 3
CCCNC(=O)N1CC(=O)N2[C@@H](CO)[C@H](c3ccc(C#Cc4cccc(OC)c4)cc3)[C@@H]2C1 | -11 | -6
C[C@H](CO)N1C[C@H](C)[C@H](CN(C)C)Oc2ccc(NC(=O)Cc3cn(C)c4ccccc34)cc2CC1=O | 3 | -6
C[C@@H](NC(=O)C[C@H]1C=C[C@H](NS(=O)(=O)c2cccc(F)c2)[C@@H](CO)O1)c1ccccc1 | -15 | -9
O=C(NC1Cc2ccccc2C1)[C@H]1N[C@H]2c3ccc(C4=CCCCC4)c(=O)n3C[C@H]2[C@@H]1CO | -5 | 12
C[C@@H]1CN([C@H](C)CO)C(=O)c2cccc(NC(=O)C3CCCCC3)c2O[C@@H]1CN(C)S(=O)(=O)c1cccs1 | 5 | -7
COc1ccc(C(=O)N2C[C@H]3[C@@H](c4ccccc42)[C@@H](CO)N3Cc2ccc(Cl)cc2)cc1 | -22 | -14
C[C@H](CO)N1C[C@H](C)[C@@H](CN(C)C(=O)Nc2ccccc2)Oc2c(cccc2N(C)C)C1=O | 7 | -3
O=C(C[C@@H]1C=C[C@@H](NC(=O)C2CCOCC2)[C@H](CO)O1)NCc1ccccc1Cl | 9 | 4
